Vaccinia mCherry: inhibitors of vaccinia virus infection (mCherry reporter signal); 310,000 compounds, 0.63% hits; AID 720579; Potency, µM (doses to about 36.5 µM), for the others: top-dose activity change, negative = inhibition, most hits filed as inhibitors; Vaccinia virus mCherry reporter infection, fluorescence; about a quarter of the inactives have no number; active = well fitted inhibition curve with a large enough effect; inconclusive = small, poorly fitted or top-dose-only effect; inactive = no such curve, though single readings can be large or run the other way; tested in A549 cells; note: nearly all actives have a fitted effect of over 35% in size; inactives centre near -10
VACV Venus inh: inhibitors of vaccinia virus (Venus reporter); AID 720580; 330,000 compounds, 0.46% hits; Potency, µM (series often up to 36.5 µM), inactives show at the highest dose activity change, negative = inhibition, usual class: inhibitors; Vaccinia virus Venus reporter expression, fluorescence; active means well fitted inhibition curve with a large enough effect; inconclusive means small, poorly fitted or top-dose-only effect; inactive means no such curve, though single readings can be large or run the other way; tested in A549 cells; note: nearly all actives have a fitted effect of over 30% in size; inactives centre near -10
The depositor's hits bear a star; i = inactive; ? = inconclusive; nt = no result given; & = joins results of further samples; [ ] = another dose, or the depositor's remark. % is set by controls: 0 for no effect and ±100 for the full control effect; potency is the fitted concentration of half-maximal effect.

SMILES	Vaccinia mCherry	VACV Venus inh
Cc1ncc([N+](=O)[O-])n1CC(=O)Nc1ccccc1Cl	i	-5.5%
COCCNC(=O)CCn1nc(-c2ccc(C)cc2)c2ccccc2c1=O	i	-13.8%
Cc1cc(O)c(C(C)C)cc1NC(=S)Nc1cc(C(C)C)c(O)cc1C	?	?
CCOC(=O)/C(C#N)=C/C1=C(N2CCCC2)CC(C)(C)OC1	nt	-13.4%
CCN(c1ccccc1)S(=O)(=O)c1ccc(C(=O)Nc2nnc(COC)o2)cc1	nt	-16.5%
CCN(CC(=O)NCc1cccs1)C(=O)CCOc1ccccc1	-14.1%	-5.0%
CC(C(=O)NCc1ccccn1)N1C(=O)c2ccccc2C1=O (centres undefined)	i	-9.2%
O=C(Cc1c(F)c(F)c(F)c(F)c1F)OC12CC3CC(C1)C(=O)C(C3)C2	-23.7%	?
Cc1ccccc1-n1c(-c2ccc(=O)[nH]n2)n[nH]c1=S	i	-6.0%
Cc1ccc(OCC(=O)NCCCNC(=O)c2ccco2)cc1C	-11.7%	-7.1%
CCc1ccc(-n2nc(C)c3c(C(=O)NCCc4ccc(OC)c(OC)c4)cc(C)nc32)cc1	?	?
COc1ccc(C(C(=O)NCc2ccc(F)cc2)N(Cc2cccnc2)C(=O)c2snc(C(N)=O)c2N)cc1 (centres undefined)	-14.2%	-17.6%

(cont.)
SMILES	Vaccinia mCherry	VACV Venus inh
COc1ccc(-c2nnc(SCC(=O)Nc3sc4c(c3C#N)CCCC4)n2-c2ccccc2)cc1	-8.1%	-4.0%
CC(=O)Nc1ccc(N(C(=O)Cn2nnc3ccccc32)C(C(=O)NC2CCCC2)c2ccc(O)c(O)c2)cc1 (centres undefined)	?	-0.4%
CCC1CCCCN1C(=O)CN1C(=O)c2ccccc2S1(=O)=O (centres undefined)	i	-13.4%
O=C(NCc1ccccn1)Nc1ccccc1	i	-2.3%
O=C(Nc1cccc(F)c1)c1cc(S(=O)(=O)N2CCOCC2)cs1	-7.0%	-5.6%
NCCCn1c(C(=O)c2cc(Cl)c(N)c(Cl)c2)c2ccc(C(F)(F)F)cc2[n+]1[O-]	-15.5%	?
COc1ccc(S(=O)(=O)c2c(N)n(Cc3ccco3)c3nc4ccccc4nc23)cc1	?	-1.7%
COc1ccc(C(=O)NNC(=O)CN2CCC(n3nnc4cc(F)ccc43)CC2)cc1	i	-16.8%
CCC1CN(C(=O)NCc2ccccc2)c2cc(Cl)ccc2O1 (centres undefined)	-2.3%	-7.0%
CCCn1c(C(O)c2ccc(OC)cc2)nc2ccccc21 (centres undefined)	-23.7%	-24.0%
Cc1ccc(S(=O)(=O)N2CCC(=O)c3ccccc32)cc1	-1.0%	-4.8%
Cc1ccc(NC2OC(CO)C(O)C2O)cc1[N+](=O)[O-] (centres undefined)	-7.9%	-11.6%

(continued)
SMILES	Vaccinia mCherry	VACV Venus inh
Cc1c(C=O)c(=O)n(-c2ccccc2)n1-c1ccccc1	i	-29.8%
Cc1sc2nc(CN(Cc3ccccc3)C(=O)NC3CCCCC3)[nH]c(=O)c2c1C	-16.1%	-19.5%
Cc1cc(OCCN2CCOCC2)ccc1C(C)C	-0.4%	-6.6%
O=S(=O)(c1cccc(Br)c1)N1CCN(C(=S)NCC2CCCO2)CC1 (centres undefined)	i	-20.7%
Cc1cccc(NC(=O)COC(=O)CNC(=O)C2CCCCC2)c1	?	?
O=C(Cn1ccnc1[N+](=O)[O-])N(CCO)CCO	i	4.4%
CCN(C(=O)CSc1nnnn1-c1ccccc1)C1CCS(=O)(=O)C1 (centres undefined)	-0.1%	-1.9%
CCN1CCN(c2ncc(C(=O)Nc3c(F)cc(F)cc3Br)c3ccccc23)CC1	?	-16.7%
CCn1c(Oc2ccc(F)cc2F)nc2c1c(=O)n(C)c(=O)n2C	-1.3%	-0.5%
COc1ccc(CC(=O)O/N=C(\N)c2ccccn2)cc1	i	14.1%
Cc1ccc(N(CC(=O)N/N=C/c2cc(C)n(-c3ccccc3)c2C)S(C)(=O)=O)c(C)c1	nt	-19.7%
CCSC(=N)N	-22.9%&-10.6%	-15.1%&-6.0%

Additional entries:
SMILES	Vaccinia mCherry	VACV Venus inh
CCOc1ccc(N2CC(C(=O)NCCc3c[nH]c4ccc(C)cc34)CC2=O)cc1 (centres undefined)	-4.9%	-17.1%
C/C(CC(=O)Nc1ccc(F)cc1)=N\NC(=O)Cc1csc(N)n1	-9.8%	-6.5%
COc1cccc(N2CCc3c(C)nc4ccc(Cl)cc4c32)c1	-17.5%	?
COc1ccc(Cl)cc1NC(=O)c1c(NCc2sccc2C)sc2c1CCCC2	-3.4%[7.34 µM]	-7.4%[7.34 µM]
CC(=O)Nc1cccc(NS(=O)(=O)c2ccccc2[N+](=O)[O-])c1	-2.8%	-0.8%
N/C(=N\OC(=O)CC1CCCCC1)c1cccnc1	-14.2%	-8.2%
CCC1(CC)NC(=O)N(CC(=O)Nc2sc3c(c2C(N)=O)CCC3)C1=O	-18.4%	-5.5%
N#Cc1c(N)n(Cc2ccccc2)c(=O)c2cc([N+](=O)[O-])ccc12	-12.6%	2.0%
N#Cc1ccccc1OCC(=O)NNC(=O)CNC(=O)c1ccc(Br)o1	-11.9%	-0.3%
O=C1NC(=S)N(c2ccc(Cl)cc2)C(=O)/C1=C/N1CCN(C(=O)c2ccco2)CC1	-10.3%	9.4%
CCOC(=O)C1CCN(C(=O)Cn2ncc3c([nH]c4ccc(C)cc43)c2=O)CC1	1.6%	0.4%
Cc1ccc2c(CC(=O)Nc3c(C(=O)Nc4cccc(Cl)c4)oc4ccccc34)coc2c1C	-21.4%	-20.3%

(list continues)
SMILES	Vaccinia mCherry	VACV Venus inh
O=C(CCS(=O)(=O)c1ccc(Br)cc1)Nc1ccc(Cl)cc1F	-13.5%	-16.5%
CCCCCC(=O)NC(=S)NNC(=O)CC	?	-6.4%
O=C(COc1ccc(Cl)cc1)Nc1cc(-c2ccccc2)no1	-1.1%	-8.2%
O=C1c2nc3cc(-c4ccco4)[nH]n3c(=O)c2CN1Cc1ccccc1	i	-4.2%
CC(C)(C)SCCNC(=O)CN(c1ccc(F)cc1)S(=O)(=O)c1ccccc1	i	-11.6%
COC(=O)c1cc(C(C)=O)c(C)[nH]c1=O	-3.3%	-4.9%
COCCn1c(CN(C)Cc2ccccc2)nc2c1c(=O)n(C)c(=O)n2C	i	-13.6%
CC(C)(C)C1CCC2(CC1)CC(=O)c1ccccc1O2 (centres undefined)	i	-11.6%
O=C(Cc1ccc(NC(=O)N2CCSc3ncccc32)cc1)NCCc1ccccc1	-4.2%	-3.2%
COc1cc2cc(CCCOC(=O)c3ccc4c(c3)OCO4)oc(=O)c2cc1OC	i	-9.5%
Cc1cc(C)nc(NC(=O)Nc2ccccc2C(F)(F)F)n1	?	?
CC1CCC(NC(=O)c2cccc(S(=O)(=O)N3CCN(c4ccccc4)CC3)c2)CC1 (centres undefined)	-16.9%	-0.2%

Continuation.
SMILES	Vaccinia mCherry	VACV Venus inh
CC(=O)Nc1ccc(NCc2cccs2)cc1	i	-8.7%
CCN(CC)c1ccc(N2C(=O)C3CCCCC3C2=O)cc1[N+](=O)[O-] (centres undefined)	i	-8.1%
CCOc1ccc(NC(=O)C(=O)c2cc(C)n(-c3cc(C)cc(C)c3)c2C)cc1	-14.2%	2.7%
Cc1ccc(C)c(S(=O)(=O)Nc2ccc(C(=O)N3CCCCC3)cc2)c1	-14.9%	-19.7%
COc1ccccc1N1CCN(C2CCCN(C(=O)c3csc(C)n3)C2)CC1 (centres undefined)	-13.9%	-10.9%
CCOC(=O)CC1C(=O)NCCN1S(=O)(=O)c1cccc(C(F)(F)F)c1 (centres undefined)	-3.5%	-20.8%
COc1ccc(OC)c(Nc2nnc(C)c(=O)[nH]2)c1	i	-1.5%
Cc1ccc(C(NC(=O)C2CCN(CCOc3ccc(Cl)cc3)CC2)c2ccccn2)cc1 (centres undefined)	8.4%	-13.5%
CCOC(=O)c1cc2sccc2n1CC(=O)OC(C)C	-8.6%	1.7%
CC(=O)Nc1ccc(S(=O)(=O)c2c(N)n(CCN3CCOCC3)c3nc4ccccc4nc23)cc1	nt	-8.7%
O=C(CSCC(=O)NC1CC1)Nc1ccc2ccccc2c1	-2.5%	-8.8%
COc1ccc(CCc2nnc(CCC(=O)NCc3cc(C(C)C)no3)o2)cc1	i	-15.6%

Going on with the list:
SMILES	Vaccinia mCherry	VACV Venus inh
CCOC(=O)c1cnn(-c2nc(SC)nc3sc4c(c23)CCC4)c1N	nt	-12.1%
COc1ccc(C2c3[nH]c4ccccc4c3C[C@H]3C(=O)N(c4ccccc4C(=O)NCCN4CCOCC4)C(=O)N23)cc1 (some centres undefined)	-8.5%	3.2%
CC(C)(C)NC(=O)C(OC(=O)c1cccs1)c1ccc(C#N)cc1 (centres undefined)	i	0.3%
CCC(c1nnnn1-c1c(C)cccc1C)N1CCN(C/C=C/c2ccccc2)CC1 (centres undefined)	4.7%	-5.1%
O=C1C=CCC(/C=C/c2ccccc2)O1 (centres undefined)	?	0.891µM*
Cc1noc(C)c1CS(=O)(=O)Cc1ccc(Cl)cc1	i	-11.2%
CN(c1ncc(C(F)(F)F)cc1Cl)n1cc(C(=O)O)c2ccccc2c1=O	-6.8%	-3.0%
CC1CCN(S(=O)(=O)c2ccc(N3CCCCS3(=O)=O)cc2)CC1	-7.6%	-16.5%
Cn1ncc2c(Nc3ccccc3Br)ncnc21	nt	-21.8%
CNC(=S)N(Cc1ccco1)Cc1cc2cc(OC)c(OC)cc2[nH]c1=O	-4.5%	-14.3%
CC(=O)OC(C)(C)/C=C/C(=O)C(C)(O)C1[C@H](O)C[C@@]2(C)C3CC=C4C(CC[C@@H](O)C4(C)C)[C@]3(CO)C(=O)C[C@]12C (some centres undefined)	7.08µM*	35.5µM*
CC(Nc1cccc2ccccc12)C(=O)N/N=C/c1ccccn1 (centres undefined)	i	-11.4%

Later entries
SMILES	Vaccinia mCherry	VACV Venus inh
CCOC(=O)c1c(-c2cccs2)csc1N	-25.6%	-18.7%
CN(C)S(=O)(=O)N1CCN(CC(=O)Nc2cc(Cl)ccc2Cl)CC1	-18.7%	-6.4%
N#Cc1c(Oc2ccc3ccccc3c2)sc(C(=O)c2ccccc2)c1N	nt	-18.3%
CCOC(=O)C1CCN(C(=O)COC(=O)CNC(=O)c2ccc(C(C)(C)C)cc2)CC1	-5.1%	6.0%
CCCCCCSc1cccc(-c2nc3cc(C)ccn3c2NCc2ccccc2)c1	-21.9%&-6.0%	?
CN(C)CC1Oc2ccccc2OC1(O)c1ccccc1 (centres undefined)	-13.4%[7.34 µM]	-17.4%[7.34 µM]
CC(=O)C1=C(O)C(=O)N(CO)C1c1ccccc1F (centres undefined)	-9.7%	-9.5%
Cc1c(NC(=O)Nc2ccc(F)cc2F)c(=O)n(-c2ccccc2)n1C	-0.1%	-18.7%
O=C(O)c1[nH]nc2c1COc1ccccc1-2	i	0.1%
C=CS(=O)(=O)N(Cc1ccccc1)[C@H](CO)CC(C)C	?	1.12µM*
COc1ccccc1-n1c(/C=C/c2ccccc2)nc2ccccc2c1=O	-21.9%	-22.0%
CC(NC(=O)Oc1cccc2ccccc12)c1ccccc1 (centres undefined)	-19.5%	5.1%

(continued)
SMILES	Vaccinia mCherry	VACV Venus inh
COc1cc(C2NC(=O)NC(C)=C2C(=O)OC2CCCC(C)C2)ccc1O (centres undefined)	-11.7%	-13.2%
N#C/C(N)=C(/N)C#N	i	-11.4%
Cc1cc(C)n2nc(C(=O)Nc3ccc4c(c3)CCC4)nc2n1	-11.1%	-10.0%
CCN(CC)CCCSc1nc2ccccc2s1	-18.4%	2.3%
Cc1ccc(NC(=O)C2CCCN(C(=O)c3cnn(-c4ccccc4)c3-n3cccc3)C2)cc1 (centres undefined)	?	?
CC(C)CC(=O)Nc1ccc(-c2nnn(CC(=O)NCc3ccco3)n2)cc1	?	-21.5%
CSc1nc(C)cc(SC(C(C)=O)C(=O)Nc2ccccc2)n1 (centres undefined)	?	-20.6%
CCC1(c2ccccc2)NC(=S)N(c2ccc(C)cc2)N1 (centres undefined)	-8.6%	-6.8%
COC(=O)C1=C(C)N=C2SC(C#N)=C(N)N2C1c1ccc(OC)cc1 (centres undefined)	nt	-23.2%
COc1c(O)ccc2c1CN1CCc3cc4c(cc3C1C2)OCO4 (centres undefined)	11.2µM*	11.2µM*
Cc1ccc([C@H]2C(C(=O)O)=C[C@@H](C(C)(C)C)N2S(=O)(=O)c2ccc(C)cc2)cc1	-26.9%	-11.9%
CN(C)S(=O)(=O)c1cccc(NC(=S)N(CCC#N)Cc2cccnc2)c1	i	-3.3%
O=C(OCc1ccccc1)C1=NNC2C(=O)N(c3ccc(Br)cc3)C(=O)C12 (centres undefined)	i	-6.0%
COc1ccc(Br)cc1CN1CCSCC1	i	-6.5%
CSCCC(NC(=O)COc1ccccc1)C(=O)OCc1ccc([N+](=O)[O-])cc1 (centres undefined)	-2.0%	-15.3%

Single records, from the list above.
Shown for `CCC1(c2ccccc2)NC(=S)N(c2ccc(C)cc2)N1` (centres undefined) → Vaccinia mCherry = -8.6%; VACV Venus inh = -6.8%
Shown for `CSCCC(NC(=O)COc1ccccc1)C(=O)OCc1ccc([N+](=O)[O-])cc1` (centres undefined) → Vaccinia mCherry = -2.0%; VACV Venus inh = -15.3%

Assay outcomes from PubChem.

An unsorted share of the library; overall some 0.87% were active at least once.
